AF4-AF9 inh = inhibitors of AF4 peptide binding to AF9, primary screen, biochemical, AlphaScreen, biotin-AF4 peptide, FLAG-AF9, single point. 350,000 compounds, 0.47% hits. inhibition, % at 10 µM. Protein AF-9 (Homo sapiens), P42568. AID 651704, 2012;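 active means every replicate reaching a set inhibition limit, whatever the replicate mean, cut at about 25% in these data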;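 further: 0% = plate neutral control median and 100% = total signal loss; the record names both 10 and 1 µM as test concentration; the first replicate is given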
Target sequence (P42568 whole entry, looked up): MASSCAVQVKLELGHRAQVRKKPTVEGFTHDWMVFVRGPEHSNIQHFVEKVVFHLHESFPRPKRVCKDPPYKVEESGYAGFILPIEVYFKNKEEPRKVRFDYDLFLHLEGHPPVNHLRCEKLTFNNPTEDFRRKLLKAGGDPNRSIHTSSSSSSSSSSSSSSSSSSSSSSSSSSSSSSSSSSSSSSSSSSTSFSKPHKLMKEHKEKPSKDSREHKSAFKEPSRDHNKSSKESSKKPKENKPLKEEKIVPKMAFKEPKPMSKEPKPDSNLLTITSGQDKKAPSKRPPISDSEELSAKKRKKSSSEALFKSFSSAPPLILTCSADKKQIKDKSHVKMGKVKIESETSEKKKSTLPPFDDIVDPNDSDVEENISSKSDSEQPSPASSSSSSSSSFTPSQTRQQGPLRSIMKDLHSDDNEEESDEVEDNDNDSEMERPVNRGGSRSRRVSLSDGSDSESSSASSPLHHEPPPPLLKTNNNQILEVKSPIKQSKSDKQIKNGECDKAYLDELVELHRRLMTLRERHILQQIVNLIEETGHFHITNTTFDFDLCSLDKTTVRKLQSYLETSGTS
rRNA inh HTS = reduced GFP signal of wild-type E. coli, primary screen, bacterial rRNA inhibitor project, GFP/RFP fluorescence, OD600, single point; GFP signal change (wild-type ribosome), % (concentration not given with the values); AID 720706, 2013; 350,000 compounds, 1.6% hits; E. coli WT GFP vs humanized-ribosome RFP mutants, 24 h; active compounds read low; DMSO median 0, no signal -100;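 active means significant combined selectivity score with lowered wild-type GFP, culture density cut under 30%, mutant RFP and density less affected; inactive means any of these conditions unmet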; further: one replicate is shown; some compounds called inactive have numbers as strong as hits
rRNA inh HTS OD600 = further read-out of rRNA inh HTS, marked with its call; OD600 change, %; measured here: OD600 growth;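 optical density of the mix in the first replicate; 0 = DMSO median and -100 = no signal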
rRNA inh HTS RFP = further read-out of rRNA inh HTS, marked with its call; RFP signal change, %; measured here: RFP humanized mutant strains;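 first replicate; 0 = DMSO median and -100 = no signal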
Numbers without * were called inactive. An excerpt (hit frequency here may not be typical).

smiles	AF4-AF9 inh	rRNA inh HTS	rRNA inh HTS OD600	rRNA inh HTS RFP
CCC(=O)N1CC(=O)N2[C@H](CO)[C@@H](c3ccc(C#CC4CCCC4)cc3)[C@H]2C1	0.1	2	-5	-1.4
COc1ccc(S(=O)(=O)N(C)C[C@H]2OCCCC[C@@H](C)Oc3ccc(NS(=O)(=O)c4ccc(C)cc4)cc3C(=O)N([C@@H](C)CO)C[C@H]2C)cc1	1.0	7	10	2.4
CN(C)C(=O)C[C@H]1C=C[C@H](NC(=O)C2CCOCC2)[C@H](CO)O1	-8.2	0	6	-1.2
COc1ccc(CNC(=O)C2CCCN2C(=O)Nc2cccc(Cl)c2)cc1 (configuration not stated)	0.8	4	11	3.7
NS(=O)(=O)c1cccc(NC(=O)CSc2nnc(NC3CC3)s2)c1	-13	12	9	3.9
O=C1CN(Cc2ccc(F)cc2)C[C@@H]2[C@H](c3ccc(Br)cc3)[C@H](CO)N12	13	-1	-8	-3.0
C[C@H]1CCCCO[C@H](CN(C)S(=O)(=O)c2cccs2)[C@@H](C)CN([C@@H](C)CO)C(=O)c2cc(NS(=O)(=O)c3ccccc3)ccc2O1	-8.1	-2	-4	-0.6
CCCNC(=O)N1CC(=O)N2[C@H](CO)[C@@H](c3ccc(C#Cc4cccc(F)c4)cc3)[C@@H]2C1	-1.5	-59	-71	-15
CNC[C@H]1Oc2ccc(N)cc2CC(=O)N([C@@H](C)CO)C[C@H]1C	1.6	0	7	-0.9
CN1[C@H](C(=O)NC2CCC2)[C@@H](CO)[C@@H]2Cn3c(ccc(/C=C/c4ccccc4)c3=O)[C@@H]21	-4.8	-2	1	2.5
C[C@H]1CN([C@@H](C)CO)C(=O)c2cc(NC(=O)c3ccncc3)ccc2O[C@H]1CN(C)Cc1ccc(Cl)c(Cl)c1	4.0	-7	-29	2.0
O=C(N[C@@H]1C=C[C@@H](CC(=O)N2CCc3ccccc3C2)O[C@H]1CO)C1CCOCC1	-5.5	6	10	-1.6
COc1ccc2c3c([nH]c2c1)[C@@H](CO)N(C(=O)Nc1ccc(F)cc1)CC31CCN(Cc2nccs2)CC1	16	-1	-15	13
O=C(Nc1ccc(F)cc1)N1CC(=O)N2[C@H](CO)[C@H](c3ccc(-c4ccc(F)cc4)cc3)[C@@H]2C1	1.7	-32	-58	-2.3
CO[C@@H]1CC[C@@H]2CCN(C)C(=O)C[C@@H](c3ccccc3)CN(C)C(=O)c3cc(C#N)ccc3OC[C@@H]1O2	-2.3	-1	-8	-1.0
C[C@@H]1CCCCO[C@H](CN(C)S(=O)(=O)c2ccc(F)cc2)[C@H](C)CN([C@@H](C)CO)C(=O)c2cc(NS(=O)(=O)c3ccc(Cl)cc3)ccc2O1	-0.1	1	8	-3.6
C[C@H]1CCCCO[C@H](CN(C)S(=O)(=O)c2ccccc2)[C@@H](C)CN([C@@H](C)CO)C(=O)c2cc(NC(=O)C3CCCCC3)ccc2O1	1.4	6	0	6.9
N#C[C@H]1[C@@H](c2ccccc2/C=C/c2ccccc2)[C@@H](CO)N1C(=O)Nc1ccccc1	-1.4	4	-11	-2.7
N#Cc1ccc(-c2ccc([C@@H]3[C@@H](CO)N4C(=O)CN(C(=O)Cc5ccccc5)C[C@@H]34)cc2)cc1	-5.6	3	-1	3.3
COc1cccc(C#Cc2ccc([C@@H]3[C@@H](CO)N4C(=O)CN(C(=O)c5ccncc5)C[C@H]34)cc2)c1	-0.6	1	5	1.4
O=C(C[C@H]1CC[C@@H]2[C@H](COC[C@@H](O)CN2S(=O)(=O)c2ccccc2)O1)NCCN1CCCC1	-3.4	4	9	-4.0
CC12CCC(C3NC(=S)NN=C31)C2(C)C (configuration not stated)	-2.9	5	9	0.7
C[C@@H]1CCCCO[C@@H](CN(C)Cc2ccccc2)[C@H](C)CN([C@H](C)CO)C(=O)c2cc(NS(=O)(=O)c3ccc(F)cc3)ccc2O1	5.5	0	-7	2.3
Cc1ccc(S(=O)(=O)N[C@@H]2CC[C@H](CCn3cc(C4CCCC4)nn3)O[C@@H]2CO)cc1	-0.4	-6	-1	-1.6
CN1c2ccc(-c3ccc(C#N)cc3)cc2[C@@H]2[C@@H](CCN2C(=O)NC2CCCCC2)[C@@H]1CO	-23	-9	-17	16
C[C@H]1CN([C@@H](C)CO)C(=O)Cc2cc(NS(=O)(=O)c3cccs3)ccc2O[C@@H]1CN(C)S(=O)(=O)c1cn(C)cn1	-7.5	-3	-9	-2.2
CCCN1C[C@@H](C)[C@@H](OC)CN(C)C(=O)c2cc(NC(=O)c3ccccc3)ccc2OC[C@@H]1C	-2.5	1	2	-1.4
O=C(NC1CCCCC1)N1CC(=O)N2[C@H](C1)[C@@H](c1ccc(-c3ccccc3)cc1)[C@@H]2CO	1.2	-40	-73	-1.9
N#C[C@H]1[C@@H](c2ccccc2C2=CCCCC2)[C@@H](CO)N1C(=O)Cc1ccncc1	1.1	-6	-4	-1.6
COc1ccc(NC(=O)N[C@@H]2CC[C@H](CC(=O)NCc3ccccn3)O[C@H]2CO)cc1	-0.3	1	-3	-0.9
O=C1CNC[C@H]2[C@H](c3ccc(C#CC4CCCC4)cc3)[C@H](CO)N12	1.7	4	0	-4.9
CC=Cc1ccc2n(c1=O)C[C@@H]1[C@@H](CO)[C@H](C(=O)NC3CCCC3)[C@H]2N1C(=O)c1cnccn1 (mixture of isomers)	-3.3	4	-2	-2.9
O=C(NC1CCCCC1)N1CC(=O)N2[C@H](C1)[C@@H](c1ccc(-c3cccnc3)cc1)[C@@H]2CO	-2.9	4	11	-3.8
Cc1ccccc1S(=O)(=O)N1[C@@H]2CNC[C@H]1C2c1ccc(-c2ccc(C(=O)N(C)C)cc2)cc1 (some centres not stated)	8.9	-2	5	2.4
C(=C\c1ccc(C2[C@@H]3CN(Cc4ccccn4)C[C@H]2N3)cc1)/c1ccccc1 (some centres not stated)	20	-59	-75	-15
C[C@@H]1CN([C@H](C)CO)C(=O)Cc2cc(N(C)C)ccc2O[C@H]1CN(C)Cc1ccc(C(F)(F)F)cc1	20	0	-1	-1.7
COc1ccc2c3c(n(C)c2c1)[C@H](CO)N(C(=O)Cc1ccccn1)CC31CN(CC2CCCCC2)C1	26*	2	4	4.9
CN(C)CC(=O)N1[C@@H]2c3ccc(-c4cccnc4)c(=O)n3C[C@H]1[C@H](CO)[C@H]2C(=O)NC1CCCC1	-1.7	0	8	0.7
COC(=O)C1=C(C)N(C)C(=NCc2cccc(C(F)(F)F)c2)NC1c1ccc(C(F)(F)F)cc1 (configuration not stated)	4.2	-56	-80	-16
CCCC(=O)Nc1ccc2c(c1)C(=O)N(C)C[C@@H](OC)[C@H](C)CN(C(=O)c1ccncc1)[C@H](C)CO2	-0.2	0	-1	-0.5
N#Cc1ccc(NC(=O)COC(=O)C2CCC2)cc1	-11	-1	0	3.5
N#C[C@@H]1[C@H](c2ccc(C#Cc3ccccc3F)cc2)[C@@H](CO)N1C(=O)C1CCCC1	-3.9	-53	-68	-4.2
CCCN(C)C[C@@H]1Oc2cc(-c3cncnc3)ccc2S(=O)(=O)N([C@@H](C)CO)C[C@@H]1C	-2.8	1	4	-4.3
COCC(=O)Nc1ccc2c(c1)OC[C@@H](C)N(C(C)=O)C[C@H](C)[C@H](OC)CN(C)C2=O	-1.6	1	4	0.7
C[C@H](CO)N1C[C@H](C)[C@@H](CN(C)Cc2ccc3c(c2)OCO3)OCCCC[C@H](C)Oc2ccc(NS(=O)(=O)c3ccc(Cl)cc3)cc2C1=O	9.0	3	-17	7.2
COc1cccc(NC(=O)N2CC(=O)N3[C@@H](CO)[C@@H](c4ccc(C#CC5CCCCC5)cc4)[C@@H]3C2)c1	3.3	3	-7	7.3
O=C(NC1CCCC1)[C@H]1[C@H](CO)[C@H]2Cn3c(ccc(-c4ccccc4)c3=O)[C@@H]1N2	-0.6	2	6	-0.5
COc1ccc(C(=O)Nc2ccc3c(c2)OC[C@@H](C)N(Cc2cocn2)C[C@@H](C)[C@@H](OC)CN(C)C3=O)cc1	4.1	2	5	0.2
COC(=O)C(C)Sc1nnc(Cc2cc(=O)[nH]c(=O)[nH]2)n1-c1ccc(OC)cc1 (configuration not stated)	2.4	5	8	1.0
Cc1cc(C(=O)Nc2ccc3c(c2)C(=O)N(C)[C@H]2CC[C@@H](CC(=O)N[C@@H](C)c4ccccc4)O[C@H]2CO3)no1	1.1	-2	-3	-0.9

An excerpt from above in order of count of non-hydrogen atoms, falling:
smiles	AF4-AF9 inh	rRNA inh HTS	rRNA inh HTS OD600	rRNA inh HTS RFP
Cc1cc(C(=O)Nc2ccc3c(c2)C(=O)N(C)[C@H]2CC[C@@H](CC(=O)N[C@@H](C)c4ccccc4)O[C@H]2CO3)no1	1.1	-2	-3	-0.9
COc1ccc2c3c(n(C)c2c1)[C@H](CO)N(C(=O)Cc1ccccn1)CC31CN(CC2CCCCC2)C1	26*	2	4	4.9
CCCN1C[C@@H](C)[C@@H](OC)CN(C)C(=O)c2cc(NC(=O)c3ccccc3)ccc2OC[C@@H]1C	-2.5	1	2	-1.4

Following part.
smiles	AF4-AF9 inh	rRNA inh HTS	rRNA inh HTS OD600	rRNA inh HTS RFP
Cc1noc(C)c1NC(=O)Nc1ccc2c(c1)C(=O)N([C@H](C)CO)C[C@@H](C)[C@@H](CN(C)S(=O)(=O)c1ccccc1)OCCCC[C@H](C)O2	-1.7	-2	-3	-0.3
N#C[C@H]1[C@@H](c2ccccc2-c2cccc(F)c2)[C@H](CO)N1C(=O)CN1CCOCC1	-1.1	-2	0	1.5
CC1([N+](=O)[O-])COC2(CCCCC2)OC1	-1.6	12	15	0.4
O=C(C1CC1)N1CC(=O)N2[C@H](CO)[C@H](c3ccc(C#CCc4ccccc4)cc3)[C@H]2C1	-6.4	-1	3	-0.6
CCCNC(=O)[C@@H]1[C@@H](CO)[C@@H]2Cn3c(ccc(-c4cccc(OC)c4)c3=O)[C@@H]2N1Cc1nccs1	-2.2	-1	-5	-2.9
O=C(Cc1cccnc1)N1CC(=O)N2[C@@H](CO)[C@H](c3ccc(C#CC4CC4)cc3)[C@@H]2C1	-1.0	-22	-33	2.0
CCC(=O)N1CC2(CCN(Cc3ccc(Cl)cc3)CC2)c2c([nH]c3cc(OC)ccc23)[C@H]1CO	32*	-1	-6	4.5
C[C@H](CO)N1C[C@H](C)[C@H](CN(C)S(=O)(=O)c2ccc(F)cc2)OCCCC[C@H](C)Oc2ccc(NS(=O)(=O)c3ccc(Cl)cc3)cc2C1=O	-1.9	0	-12	-2.7
COc1ccccc1NC(=O)N[C@@H]1C=C[C@H](CC(=O)N[C@@H](C)c2ccccc2)O[C@@H]1CO	-15	-1	-7	-0.4
C[C@H](CO)N1C[C@H](C)[C@@H](CN(C)C(=O)Nc2cccc3ccccc23)Oc2ccc(NC(=O)Cn3cnnn3)cc2CC1=O	0.0	6	8	0.0
CCNC(=O)[C@@H]1[C@@H](CO)[C@@H]2Cn3c(ccc(-c4ccccc4)c3=O)[C@H]1N2Cc1ccccc1	-0.5	0	9	3.3
CCCN1[C@@H]2c3cccc(=O)n3C[C@@H]2[C@@H](CO)[C@@H]1C(=O)N[C@H](C)c1ccccc1	0.0	1	4	1.3
COc1ccccc1NC(=O)N1CC(=O)N2[C@H](C1)[C@H](c1ccc(C#CC3CC3)cc1)[C@@H]2CO	2.7	1	16	3.2
CN(Cc1cncnc1)C[C@@H]1N[C@H](CO)[C@@H]1c1ccc(-c2ccc(C#N)cc2)cc1	1.3	-2	-3	-0.3
O=C(O)C[C@@H]1C[C@@H]2c3cc(NC(=O)Nc4ccc(C(F)(F)F)cc4)ccc3O[C@@H]2[C@H](CO)O1	-3.6	0	1	-0.4
CCC(=O)Nc1ccc2c(c1)OC[C@H](C)N(C(C)=O)C[C@@H](C)[C@H](OC)CN(C)C2=O	-7.0	2	7	-2.5
CO[C@@H]1CN(C)C(=O)c2cc(NC(C)=O)ccc2OC[C@H](C)N(C(=O)C2CCC2)C[C@H]1C	-2.5	1	1	-0.2
COc1ccc(C#Cc2ccc([C@H]3[C@H](CO)N4C(=O)CN(C(=O)c5cccnc5)C[C@@H]34)cc2)cc1	-3.2	5	-2	3.6
OC[C@@H]1Nc2ccc(C#Cc3ccccc3)cc2[C@H]2[C@@H]1CCN2Cc1nccs1	-2.1	-4	-4	11
O=C(Cc1ccccn1)N1CC(=O)N2[C@@H](CO)[C@H](c3ccc(C#CC4CC4)cc3)[C@@H]2C1	-2.8	2	-4	3.2
C/C=C/c1ccccc1[C@H]1[C@@H](C#N)N(C(=O)NC2CCCC2)[C@H]1CO	0.4	1	1	2.1
COCC#Cc1ccc([C@H]2[C@H]3CN(C(=O)C4CCCC4)CC(=O)N3[C@H]2CO)cc1	-2.1	6	12	-0.1

Part of the list above, showing only rRNA inh HTS RFP and rRNA inh HTS OD600:
structure | rRNA inh HTS RFP | rRNA inh HTS OD600
O=C1CNC[C@H]2[C@H](c3ccc(C#CC4CCCC4)cc3)[C@H](CO)N12 | -4.9 | 0
CC=Cc1ccc2n(c1=O)C[C@@H]1[C@@H](CO)[C@H](C(=O)NC3CCCC3)[C@H]2N1C(=O)c1cnccn1 (mixture of isomers) | -2.9 | -2
O=C(NC1CCCCC1)N1CC(=O)N2[C@H](C1)[C@@H](c1ccc(-c3cccnc3)cc1)[C@@H]2CO | -3.8 | 11
Cc1ccccc1S(=O)(=O)N1[C@@H]2CNC[C@H]1C2c1ccc(-c2ccc(C(=O)N(C)C)cc2)cc1 (some centres not stated) | 2.4 | 5
